# MT1-MMP act inh = inhibitors of human MT1-MMP activation; HT1080 RFP-PRO-GFP cells, GFP/RFP ratio fluorescence, overnight; percent of plate control window, DMSO zero; GFP/RFP ratio change, % at 20 µM; 360,000 compounds, 0.061% hits;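 active = GFP/RFP ratio change of at least 30% with cell ATP level not reduced by more than half and red fluorescence within 50% of control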; note: strong numbers were not always called active
#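 Read-out: GFP/RFP fluorescence ratio; Test system: RFP-PRO-GFP reporter HT1080 cells; Compound dosing: single-point 20 µM compound, 1% DMSO; Times: overnight compound exposure at 37 °C.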
# CSC inhib = blocks cancer stem cells | inhibition, % at 7.5 µM | cancer stem cell-like cells viability, luminescence | 300,000 compounds, 1.1% hits;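 active = mean at 75% or more and at least half the replicates too; inconclusive = mean and replicates disagree; tested in HMLE shEcad cells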;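 note: 0% = median of negative and 100% = median of positive control wells; the first replicate is given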
# eIF4H FP inh = inhibitors of RNA binding by human eIF4H; Q15056; eIF4H fluorescence polarization binding assay; inhibition, % at 35 µM; 290,000 compounds, 0.94% hits; AID 2012;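 active = 50% or more with normal probe brightness, or confirmed in later tests; inconclusive = above 50% with abnormal brightness, or retests that disagree; inactive = below 50% or failed in later tests; about a fifth of its hits are not listed in these tables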;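 note: calls also rest on retests at 20 µM and on dose response follow-up; 0% = protein and probe with vehicle and 100% = probe without protein; strong numbers were not always called active; many hits fall short of the cut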
# Rce1 inh = yeast Ras-converting enzyme inhibition; Q03530; yeast membranes, quenched prenylated peptide cleavage fluorescence; calls only; 290,000 compounds, 0.27% hits; AID 2563;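 active = fall in fluorescence gain of 50% or more versus controls, with final raw signal at or below 3038400; inconclusive = same 50% fall but final raw signal above 3038400; inactive = fall in fluorescence gain under 50%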;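 note: plate controls were neutral control wells for no effect and wells lacking membranes for full effect; tested at 10 µM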
# Env fusion inh = blocks HIV Env-driven cell-cell fusion; AID 651610; inhibition, % at 12.3 µM; 360,000 compounds, 1.1% hits; HeLa-JRFL Env/CEM21 cell fusion, luciferase;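 active = mean replicate inhibition score of at least 50 and every replicate individually at or above 50; inconclusive = only one of the two criteria met; inactive = mean below 50 and not all replicates reaching 50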;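 note: 0% = plate neutral controls and 100% = maraviroc near 300 nM; one replicate is shown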
# UUG fidelity = alters start codon recognition fidelity in yeast | S. cerevisiae UUG-firefly luciferase reporter, luminescence/redox ratio | activity score, % at 18.7 µM | 350,000 compounds, 0.13% hits;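 active = replicate mean at a twofold rise or more, about +100% in these data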;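 note: firefly luciferase made from a UUG start codon reports start codon fidelity; reporter light over untreated wells divided by growth signal over untreated wells; some hits fall short of that in this replicate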
# PABP polyA inh = blocks human PABP binding to poly(A) RNA | 290,000 compounds, 1% hits | fluorescence polarization | P11940 | AID 2014 | inhibition, % at 35 µM;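 active = 50% or more with normal probe brightness, or confirmed in later tests; inconclusive = above 50% with abnormal brightness, or retests that disagree; inactive = below 50% or failed in later tests; about a fifth of its hits are not listed in these tables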;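 note: calls also rest on retests at 20 µM and on dose response follow-up; controls were probe without protein and protein plus probe with vehicle; some compounds called inactive have numbers as strong as hits; many hits fall short of the cut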
# Target sequence (P11940 whole entry, looked up): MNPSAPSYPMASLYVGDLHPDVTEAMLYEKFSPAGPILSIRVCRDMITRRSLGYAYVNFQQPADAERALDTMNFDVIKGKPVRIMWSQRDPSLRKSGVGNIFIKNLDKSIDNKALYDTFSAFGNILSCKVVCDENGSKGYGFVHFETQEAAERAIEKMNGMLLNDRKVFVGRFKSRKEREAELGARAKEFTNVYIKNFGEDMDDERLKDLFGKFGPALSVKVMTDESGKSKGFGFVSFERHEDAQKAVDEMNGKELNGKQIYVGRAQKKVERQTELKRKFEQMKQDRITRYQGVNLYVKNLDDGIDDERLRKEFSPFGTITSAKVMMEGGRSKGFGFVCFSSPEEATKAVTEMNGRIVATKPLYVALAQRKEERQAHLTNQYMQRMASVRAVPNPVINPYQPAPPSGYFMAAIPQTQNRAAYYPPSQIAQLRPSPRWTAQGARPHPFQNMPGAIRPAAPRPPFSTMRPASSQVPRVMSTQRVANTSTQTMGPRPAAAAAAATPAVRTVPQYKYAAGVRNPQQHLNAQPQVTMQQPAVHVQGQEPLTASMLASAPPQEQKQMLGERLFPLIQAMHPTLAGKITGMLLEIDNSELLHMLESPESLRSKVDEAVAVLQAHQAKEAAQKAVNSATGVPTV
# eIF4H FP inh retest = also measured in eIF4H FP inh; calls as there; inhibition, %; compound at 20 µM; confirmation average;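 mean of two retest wells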
# PABP polyA inh retest = further read-out of PABP polyA inh, marked with its call; inhibition, %; compound at 20 µM; confirmation repeats;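 mean of two retest wells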
# MT1-MMP act inh RFP = further read-out of MT1-MMP act inh, marked with its call; RFP signal change, %; measured here: RFP expression control read;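 0 = vehicle wells; hits needed this value within 50% of zero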
# The depositor's hits bear a star; i = inactive; ? = inconclusive; nt = not tested or not shown; & = joins results of further samples.
SMILES,MT1-MMP act inh,MT1-MMP act inh RFP,CSC inhib,eIF4H FP inh,Rce1 inh,Env fusion inh,UUG fidelity,PABP polyA inh,others
COc1ccc(N(CC(=O)NC2CC3CCC2C3)S(=O)(=O)c2ccc(C)cc2)cc1 (stereo unspecified),0,-6,-10,-16,i,3,-1,-1,
COc1ccccc1OC(=O)Cc1cccc2ccccc12,-1,0,-8,4,i,nt,1,-4,
COc1ccc2c(c1)CCN1C2CCN2C(=O)CCC21 (stereo unspecified),-4,0,1,73*,i,12,nt,46*,eIF4H FP inh retest=101*;PABP polyA inh retest=89*
COc1ccc(Cl)cc1C(=O)NCc1cn(C)nc1C,0,4,-7,-6,nt,nt,-17,4,
COc1ccc(CCN(C)C2CCCN(C(=O)Cn3cccn3)C2)cc1OC (stereo unspecified),-1,4,-4,nt,i,6,-16,nt,
COc1ccc(C)cc1Nc1ncnc2c1nnn2Cc1ccccc1Cl,1,-2,nt,nt,nt,-23,-18,nt,
COc1ccc(C(C)=O)cc1COc1ccc(Cl)c(C)c1,-6,-6,22,-11,i,5,nt,-1,
CCn1cc(C(=O)Nc2ccc(NC(=O)c3ccco3)cc2)c(=O)c2ccc(C)nc21,13,7,-5,1,i,5,-19,15,
Clc1ccc(-c2nc3cc(CN4CCCCC4)ccc3o2)cc1,0,-3,-9,-8,i,-40,-20,8,
COc1ccccc1S(=O)(=O)Cc1ccc(C(=O)N2CCN(c3ccccn3)CC2)o1,1,0,-16,0,nt,nt,-5,2,
NC(=O)c1c(-c2ccccc2)oc2ccc(O)cc12,3,2,1,7,i,-184,-12,3,
COc1cccc2cc(C(C)=O)c(=O)oc12,-4,5,nt,4,i,-17,4,-6,
CCCC(=O)c1ccc(N2CCN(C(=O)c3cccs3)CC2)c(F)c1,1,-2,-3,-9,i,-11,-1,10,
Cn1cc(-c2ccccc2)cc(C#N)c1=O,10,3,-1,-4,i,-4,1,-7,
O=C(/C=C/c1ccc(F)cc1)NC(=S)NNC(=O)[C@H]1C[C@@H]1c1ccccc1,5,2,-5,-2,i,9,-4,8,
Cc1ccccc1-c1cc(C(=O)O)nn1CC1CC(c2cccc([N+](=O)[O-])c2)=NO1 (stereo unspecified),-3,4,8,nt,nt,15,0,nt,
COCCN(C(=O)COC(=O)Cc1c(C)nc2ccccc2c1C)c1c(N)n(CC(C)C)c(=O)[nH]c1=O,-1,2,-7,nt,nt,1,3,nt,
Cc1ccccc1-n1cnnc1SCC(=O)Nc1cccnc1Cl,3,0,-11,-5,i,-5,nt,-39,
CCOC(=O)NC(=O)C(=CNc1ccccc1C)C(=O)NC(=O)OCC,-2,-1,-4,-5,nt,7,-5,6,
Cc1cc(C)c(S(=O)(=O)Nc2cccc(S(=O)(=O)N3CCOCC3)c2)c(C)c1,-5,-5,-10,0,i,-10,3,-2,
Cc1ccc(S(=O)(=O)N2CCN(C(=O)/C=C/c3ccccc3)CC2)cc1C,1,-2,nt,nt,nt,1,-8,nt,
COc1cc(/C=C/C(=O)OCC(=O)NC(=O)NC(C)(C)C)ccc1O,0,-1,2,-17,i,-7,-9,-5,
CC(NC(=O)CC(O)(C(F)(F)F)C(F)(F)F)c1ccccc1 (stereo unspecified),5,1,-6,-2,i,nt,nt,0,
Cc1nc2cc3ccccc3cc2s1,0,-2,nt,nt,nt,-20,-7,nt,
Cc1ccc(NC(=O)Cn2nnc(C(=O)NCc3cccs3)c2N)cc1F,2,0,-16,-4,i,-8,-21,5,
CCCCC(=O)N(C)c1c(C)nc2ccc(C(=O)NCCOc3ccc(OC)cc3)cn12,-2,0,nt,nt,nt,-16,3,nt,
Brc1ccc(-c2nnc(-c3ccccc3)c(N3CCSCC3)n2)cc1,-4,-6,1,-7,i,5,-16,-7,
CCCOC(=O)c1ccc(NC(=O)C(CC)CC)cc1,-1,0,15,0,i,23,1,4,
O=S(=O)(Nc1nc(CN2CCOCC2)nc2sc3c(c12)CCCC3)c1cc(F)ccc1F,-2,1,-2,-12,nt,17,-5,-5,
O=C(CSc1nnc(-c2cccs2)n1Cc1ccccc1)NCc1ccc2c(c1)OCO2,0,2,8,-7,i,nt,nt,-4,
O=C(/C=C/c1ccccc1[N+](=O)[O-])Nc1cc(S(=O)(=O)N2CCOCC2)ccc1N1CCOCC1,-1,0,nt,nt,nt,-4,-10,nt,
CC1CCN(S(=O)(=O)c2ccc(NC(=O)C3CC3)cc2)CC1,-5,-11,-13,-5,i,-2,nt,1,
O=C(O)Cn1ncn(-c2ccc(OC(F)(F)F)cc2)c1=O,5,7,-5,-9,i,-6,-16,-5,
Cn1c(=O)oc2cc(S(=O)(=O)N3CCCC3)ccc21,1,8,-12,-6,i,62*,18,6,
COc1ccc(C(C)=O)cc1COc1nc(C)nc2ccccc12,2,3,3,13,i,-4,nt,2,
CCCc1ccc(C(C)NC(=O)c2cnccn2)cc1 (stereo unspecified),0,-10,-7,-7,i,nt,-23,-5,
CCOC(=O)c1c(NC(=O)CCS(=O)(=O)c2ccccc2)sc2c1CCN(C)C2,-23,1,-8,-13,i,6,-12,-22,
O=C(O)c1c(-c2ccc(Cl)cc2)cn2ccccc12,2,0,-9,9,i,22,nt,-1,
CCNC(=O)C1(C)CCN(C(=O)c2ccc3ccccc3c2)C1 (stereo unspecified),2,5,nt,nt,nt,20,-18,nt,
Cc1ccc(S(=O)(=O)NNC(=O)Nc2ccc(Cl)c(Cl)c2)cc1,0,-1,3,1,i,13,nt,2,
Cc1cc(F)ccc1NC(=S)NC1CCCC1,-1,2,-16,5,i,-7,-23,-2,
Cc1ccc(C(=O)NCc2ccccc2)cc1Br,5,2,nt,-6,i,7,7,11,
COc1ccc(-c2cc(=NC(CC(C)C)C(=O)O)c3cc(C)ccc3o2)cc1 (stereo unspecified),3,3,-6,-9,i,-225,nt,8,
O=C(CSc1nccc(-c2cccs2)n1)Nc1cccc(Cl)c1Cl,6,0,8,-5,i,4,nt,2,
Cc1sc2nc(SCc3ccc(C(=O)O)cc3)n(Cc3ccco3)c(=O)c2c1C,2,-7,-12,3,i,-8,-22,16,
C[C@H](CO)N1C[C@H](C)[C@@H](CN(C)C(=O)Nc2ccc(C(F)(F)F)cc2)Oc2c(NS(=O)(=O)c3cccs3)cccc2C1=O,0,-1,nt,nt,nt,20,19&12,nt,
O=C(OCc1nnc(-c2ccccc2)o1)c1ccc(Cl)cc1,-1,6,3,13,i,-23,nt,6,
COc1ccccc1C(c1nnnn1C(C)(C)C)N1CCCCCC1 (stereo unspecified),0,2,2,-8,i,nt,-11,-2,
CC(=O)Oc1ccc(C(=O)Nn2cnnc2)cc1,7,13,nt,nt,i,nt,-15,nt,
COc1cc(CNCc2ccncc2)ccc1OCC(N)=O,1,6,nt,nt,nt,8,-2,nt,
O=C(CCCn1c(=O)[nH]c2cc(Cl)ccc2c1=O)NCCCN1CCCC1,8,1,-17,-2,i,nt,3,3,
COc1ccccc1NC(=O)c1cc(S(=O)(=O)N2CCOCC2)ccc1Cl,-5,-5,1,2,i,nt,-4,-3,
CCOC(=O)C/C(C)=N/NC(=O)c1cccs1,11,1,-4,-11,i,nt,-11,-2,
Cc1cc(C)nc(/N=C2\NC(=O)CC(C(=O)O)N2c2ccc(Oc3ccccc3)cc2)n1 (stereo unspecified),-1,0,9,-5,i,11,5,8,
CCCNC(=O)CN(Cc1ccco1)S(=O)(=O)c1ccc(OCC)cc1,0,1,nt,3,i,-46,nt,-6,
CC(=O)Nc1ccc2nc(-c3cccnc3)[nH]c2c1,0,0,nt,7,i,nt,-6,-6,
CCOc1cccc(/C=C/c2cc(C(=O)O)c3ccccc3n2)c1OC,1,4,-2,-14,i,8,-27,3,
O=C(N/N=C/c1cccc(OC(=O)c2ccccc2Cl)c1)c1cccnc1,1,2,-3,-8,i,-14,-26,2,
CCCCn1c(N)c(N(CCC(C)C)C(=O)COC(=O)c2ccco2)c(=O)[nH]c1=O,3,4,-4,-1,i,-23,nt,2,
CCN(CC)C(=O)CCc1nnc(CCc2c[nH]c3ccccc23)o1,-1,0,5,-4,i,17,nt,10,

# The results go on:
SMILES,MT1-MMP act inh,MT1-MMP act inh RFP,CSC inhib,eIF4H FP inh,Rce1 inh,Env fusion inh,UUG fidelity,PABP polyA inh,others
COc1ccc2c(c1)c1nc3ccccc3nc1n2Cc1ccc(OC)c(OC)c1,-9,0,45,?,i,nt,nt,2,
CCCC1CCC(c2ccc(C(N)=O)cc2)CC1 (stereo unspecified),1,3,-2,-13,i,nt,-13,2,
O=C(CCN1C(=O)c2ccccc2C1=O)NC(=S)Nc1ccccc1,4,5,-2,5,i,-7,nt,-1,
COCCN(CC(=O)Nc1ccccc1C(F)(F)F)C(=O)/C=C/c1ccc2ccccc2n1,-7,0,3,nt,nt,16,-15,nt,
CC1CCN(c2nnc(N)s2)CC1,13,7,nt,2,i,-20,-20,6,
O=[N+]([O-])c1ccc(-c2cnc[nH]2)cc1,-4,3,-5,7,i,-5,-17,0,
COC(=O)CCC(=O)NN1C(=O)c2ccccc2C1=O,-1,1,4,7,i,7,nt,0,
CC(C)CC(NC(=O)OC(C)(C)C)c1cn([C@@H](Cc2cc3ccccc3[nH]2)C(=O)N2CCN(C(=O)OC(C)(C)C)CC2)nn1 (stereo partly specified),2,-13,0,1,i,10,-11,-14,
COc1ccc(N2CCN(c3oc(COc4ccc(Cl)cc4Cl)nc3C#N)CC2)cc1,-1,-6,3,-7,i,nt,-9,-4,
COc1ccc(Cl)cc1NC(=O)CN(C)C(=O)Cc1n[nH]c(=O)c2ccccc12,10,-2,-1,nt,nt,-43,37,nt,
CCOC(=O)CNC(=O)CSc1nc2ncc(Br)cc2[nH]1,-3,1,nt,-4,i,nt,-15,-1,
COc1cccc(NC(=O)C(=O)NCc2ccncc2)c1,-2,-1,1,-13,nt,-20,-6,1,
O=C(Oc1ccc(Cl)c2cccnc12)c1cccc([N+](=O)[O-])c1,4,1,108*,8,i,-5,nt,4,
COC(=O)COc1ccc(/C=N/NC(=O)CN(c2ccccc2OC)S(=O)(=O)c2ccccc2)cc1,-1,2,21,-3,i,-29,-8,0,
Cc1cc(C)n(-c2ccc([N+](=O)[O-])cc2)n1,2,-1,-3,-1,i,0,-18,-7,
CC(/C=N/NC(=O)c1ccccc1F)c1ccccc1 (stereo unspecified),-3,4,-4,-4,i,-7,-2,-4,
CSc1ccc(C(=O)C2CCCN(C(=O)c3cc4cc(F)ccc4[nH]3)C2)cc1 (stereo unspecified),-2,-5,16,3,i,-23,nt,-2,
C=CCOc1cccc(C(=O)N2CCCC(CNS(=O)(=O)c3cccs3)C2)c1 (stereo unspecified),-4,-1,5,-8,i,-6,nt,0,
CCN(CC)S(=O)(=O)c1ccc2[nH]c(=O)cc(C(=O)NCc3ccccc3)c2c1,2,2,-6,-10,nt,7,8,4,
COc1ccc(NC(=O)Cn2nnc(C(=O)NCc3ccccc3)c2N)cc1Cl,-1,0,-4,-4,i,nt,-13,-9,
CC1CCN(c2ccc(C(=O)Nc3nnc(C4CC4)s3)cc2[N+](=O)[O-])CC1,4,1,6,-4,i,-12,nt,41,
COC(=O)c1cc(NCc2ccccc2F)ccc1N1CCOCC1,0,0,2,-1,i,nt,-5,-9,

# Assay outcomes from PubChem BioAssay.
